Sfp PPTase inh = qHTS Assay for Inhibitors of Bacillus subtilis Sfp phosphopantetheinyl transferase (PPTase); 4'-phosphopantetheinyl transferase ffp (Bacillus subtilis), Q9F4F7; Biochemical Sfp PPTase activity, qHTS; Potency, µM, inactives show max response, negative = inhibition, usual class: inhibitors; 3.5% of 310,000 active; active = well fitted inhibition curve with a large enough effect; inconclusive = small, poorly fitted or top-dose-only effect, or another doubt; inactive = no such curve, though single readings can be large or run the other way;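 note: the enzyme is Sfp with the accession as filed and its product quenches rhodamine fluorescence; potency is the fitted concentration of half-maximal effect; 0% = enzyme reaction without inhibitor and -100% = no enzyme wells; top concentration of the series not given in the record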
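Sfp 15 nM + cpd, 15 min RT; start w/ rhodamine-CoA 5 uM, BHQ-2-YbbR 12.5 uM (final); 50 mM Hepes pH 7.6, 10 mM MgCl2, 0.01% NP-40, 0.01% BSA; read 525/598 nm at 0 and 30 min.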
Menin MLL FP FL = qHTS Assay for Inhibitors Targeting the Menin-MLL Interaction in MLL Related Leukemias: Competition With Fluorescein Labeled MLL-derived Peptide | FP activity change, % at 61.4 µM | 290,000 tested, under 10 active | Fluorescence polarization, fluorescein-MLL peptide displacement from menin; inconclusive = falling polarisation curve, or a change in total fluorescence; inactive = total fluorescence flat and polarisation flat or rising; no compound was filed as active; the % refers to the polarisation; negative = inhibition;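 note: % of control where 0% means no effect; inhibitors lower the polarisation; unlabelled MLL peptide was the positive control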
PINK1 modulator = A Quantitative High throughput Screen to Identify Chemical Modulators of PINK1 Expression; PINK1 immunofluorescence, high-content cytometry, 24 h; Potency, µM (top dose mostly 76.6 µM), inactives show at the highest dose activation (PINK1 increase), hits mostly activators; 0.2% of 410,000 active; AID 624263, 2012; active = well fitted activation curve with a large enough effect; inconclusive = small, poorly fitted or top-dose-only effect; inactive = flat fitted curve, though single readings scatter; cell line not stated here;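 note: potency is the fitted concentration of half-maximal effect; % of control where 0% means no effect; nearly all actives have a fitted effect of over 65% in size; a mitochondrial uncoupler was the plate control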
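Cells are seeded, rested 12 hours, then given compound at five concentrations or DMSO for 24 hours. After fixation, blocking and antibody staining, PINK1 amount and mitochondrial localization are scored; CCCP serves as control.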
gsp ag = qHTS for Agonist of gsp, the Etiologic Mutation Responsible for Fibrous Dysplasia/McCune-Albright Syndrome: qHTS | gsp mutant cells, cAMP HTRF, 30 min; control for the full effect not named in the record | Potency, µM (top dose mostly 76.9 µM), for the others: at the top dose activation (cAMP increase), usual class: activators | 0.13% of 340,000 active | AID 624287, 2012; active = well fitted activation curve with a large enough effect; inconclusive = small, poorly fitted or top-dose-only effect, or another doubt; inactive = no such curve, though single readings can be large or run the other way; cell line not stated here;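 note: phosphodiesterase inhibitor Ro 20-1724 added with compounds to block cAMP breakdown; potency is the fitted concentration of half-maximal effect; nearly all actives have a fitted effect of over 60% in size; about a fifth of the inactives were tested at one dose only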
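Cells in DMEM/10% FBS with G418 were pretreated with compounds in DMSO plus […] (300 uM stock) for 30 min at 37C. cAMP was measured by HTRF (cAMP-d2 plus anti-cAMP antibody-K) after 30 min at room temperature.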
D2 ag = Beta-Arrestin HTS for Positive Allosteric Modulators of the Human D2 Dopamine Receptor: Agonists; activation, % (concentration not given with the values); DiscoveRx PathHunter D2 beta-arrestin, luminescence, 90 min; 100% = 57 uM dopamine signal; 0.084% of 360,000 active; D(2) dopamine receptor (Homo sapiens), P14416; in the data active = activation above about 40%; inconclusive = about 15% to 40%; inactive = below about 15%; note: compound concentration not given in the record; the text of the record calls up to 30% inactive
Target sequence (P14416 whole entry, looked up): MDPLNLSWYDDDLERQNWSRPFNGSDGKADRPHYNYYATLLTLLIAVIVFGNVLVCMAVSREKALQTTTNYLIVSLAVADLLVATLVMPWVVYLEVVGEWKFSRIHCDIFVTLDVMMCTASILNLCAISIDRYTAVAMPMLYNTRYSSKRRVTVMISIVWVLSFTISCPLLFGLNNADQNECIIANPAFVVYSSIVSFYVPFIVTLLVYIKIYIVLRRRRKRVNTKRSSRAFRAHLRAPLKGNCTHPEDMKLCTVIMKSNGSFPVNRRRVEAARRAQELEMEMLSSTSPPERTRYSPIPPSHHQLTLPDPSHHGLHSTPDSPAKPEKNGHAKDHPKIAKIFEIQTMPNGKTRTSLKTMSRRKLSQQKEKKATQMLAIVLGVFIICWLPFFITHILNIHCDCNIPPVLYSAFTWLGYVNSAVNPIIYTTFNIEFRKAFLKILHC
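DiscoveRx PathHunter D2 beta-arrestin cells (2,100/well) attached overnight, then compound-stimulated 90 min at 37 C in HBSS/10 mM HEPES/0.1% Tween-20 buffer; beta-galactosidase complementation read by luminescence after 1 h at ambient temperature. Dopamine 57 uM final (EC100) as control.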
ClpP mod = qHTS Assay for Activators of ClpP | purified B. subtilis ClpP, FRET peptide cleavage, 20 min | Potency, µM (highest dose often 57.5 µM), inactives show at the top dose activity change, negative = active | ATP-dependent Clp protease proteolytic subunit (Bacillus subtilis (strain 168)), P80244 | 1.9% of 340,000 active | AID 651965, 2013; active = well fitted falling curve with a large enough effect; inconclusive = small, poorly fitted or top-dose-only effect; inactive = no such curve, though single readings can be large or run the other way; note: potency is the fitted concentration of half-maximal effect; the source files actives as falling curves though it sought activators and does not explain the sign; nearly all actives have a fitted effect of over 65% in size; many hits overshoot -100%
Target sequence (P80244 whole entry, looked up): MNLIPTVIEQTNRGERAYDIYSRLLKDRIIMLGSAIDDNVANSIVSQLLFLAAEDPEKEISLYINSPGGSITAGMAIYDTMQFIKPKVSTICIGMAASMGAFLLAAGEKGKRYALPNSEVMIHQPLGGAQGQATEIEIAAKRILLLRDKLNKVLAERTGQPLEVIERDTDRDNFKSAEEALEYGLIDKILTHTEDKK
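FRET quenching reversal measured ClpP activation: 10 microg/mL B. subtilis ClpP at pH 8 with the FRET-FV decapeptide, read at 430 nm after 320 nm excitation. The 20-min minus 0-min signal was scaled between DMSO/no-enzyme wells and ADEP (5.8 microM final).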
gsp antag = qHTS for Antagonists of gsp, the Etiologic Mutation Responsible for Fibrous Dysplasia/McCune-Albright Syndrome: qHTS; gsp-mutant cells, cAMP HTRF, 30 min; control for the full effect not named in the record; Potency, µM (highest dose often 76.9 µM), without a hit: top-dose activity change, negative = inhibition, usual class: inhibitors; 0.4% of 340,000 active; AID 624288, 2012; active = falling curve of any shape with a large fitted effect; inconclusive = falling curve, mostly with a smaller effect; inactive = flat or rising curve; cell line not stated here;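 note: intracellular cAMP measured with PDE inhibitor Ro 20-1724 present during compound exposure; potency is the fitted concentration of half-maximal effect; % is set by controls: 0 for no effect and ±100 for the full control effect; nearly all actives have a fitted effect of over 65% in size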
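Cells, 2000/well, grown 16–24 h in DMEM 10% FBS with 0.5 mg/ml G418, then compounds plus […] (300 uM addition stock), 30 min at 37C. cAMP read by HTRF (cAMP-d2 and anti-cAMP antibody-K in lysis buffer) after 30 min RT.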
* hit, by the source's call; ? = inconclusive; / = no result given; [ ] = dose if it differs, or a comment.

Field names – A = Sfp PPTase inh; B = Menin MLL FP FL; C = PINK1 modulator; D = gsp ag; E = D2 ag; F = ClpP mod; G = gsp antag
CN(C(=S)NC(=O)Cc1ccccc1)c1ccccc1
  A = 18µM* | B = -0.7 | C = -0.7% | D = -1%[15.4 µM] | E = -1.8 | F = -0.1% | G = 8%
OC[C@H]1O[C@@H](c2nc(-c3nc(-c4ccc(F)cc4)no3)cs2)[C@H](O)[C@@H](O)[C@H]1O
  A = / | B = / | C = 1.4% | D = / | E = -4.6 | F = -1.1% | G = /
CN(C)c1ncc2nc(-c3ccccc3)c(=O)n(CCc3ccccc3)c2n1
  A = -1% | B = 0.0 | C = 1.2% | D = / | E = / | F = / | G = /
CC(C)(O)C#Cc1ccc(CN2CCN(Cc3ccccc3)C(CCO)C2)s1 (centres undefined)
  A = 1% | B = 2.6 | C = -1.6% | D = -8% | E = -1.1 | F = / | G = 4%
CC(C)(C)C(=O)NC(NC(=O)C(C)(C)C)c1ccc([N+](=O)[O-])cc1
  A = 9% | B = 7.0 | C = 0.9% | D = -15% | E = -1.1 | F = -1.5% | G = -4%
O=C(N/N=C/c1ccc(-c2cccc([N+](=O)[O-])c2)o1)c1ccc([N+](=O)[O-])cc1
  A = 2% | B = -0.6 | C = -1.2% | D = 6%[15.4 µM] | E = 2.7 | F = / | G = /
CCOc1ccc(N(CC(=O)NCCc2ccccc2)C(=O)CCC(=O)Nc2nccs2)cc1
  A = -9% | B = / | C = -1.1% | D = 18% | E = 0.3 | F = 1.3% | G = -16%
CCn1c(Nc2ccccc2Cl)nc2ccccc21
  A = 13% | B = 4.7 | C = -0.9% | D = 24%[15.4 µM] | E = -2.8 | F = / | G = -10%
C=C1CCN([C@@H](C)C(=O)NCCCCCC)S(=O)(=O)c2ccccc21
  A = 9% | B = 4.4 | C = -0.9% | D = -4% | E = 3.2 | F = -2.1% | G = 0%
Cc1ccc(NC(=O)Nc2c(C)n(C)n(-c3ccccc3)c2=O)cc1
  A = 2% | B = -3.9 | C = 0.6% | D = 4% | E = -2.3 | F = / | G = 8%
O=C(O)c1cc(-c2ccccc2Cl)n(-c2ccccc2)n1
  A = 16% | B = -1.3 | C = 7.1% | D = 1% | E = -5.3 | F = / | G = 0%
CCOC(=O)N1CCC2CC1c1cc(Cl)ccc12 (centres undefined)
  A = / | B = / | C = 3.8% | D = / | E = 0.6 | F = 1.9% | G = -2%
O=C(COC(=O)c1ccc(Br)o1)NCC1CCCO1 (centres undefined)
  A = 9% | B = 0.3 | C = -5.0%[38.3 µM] | D = 9% | E = -1.2 | F = 2.7% | G = 12%
O=C(c1ccc(Cl)cc1)C1CCN(C(=O)c2ccccc2)CC1
  A = -4% | B = 3.6 | C = 2.2% | D = -12% | E = -4.8 | F = 0.8% | G = 8%
COCCN1C(=O)N[C@@H](c2ccccc2)[C@@H](C(=O)OC)[C@H]1C
  A = -13% | B = -0.5[11.7 µM] | C = 0.4% | D = 5% | E = -1.7 | F = -1.6% | G = 8%

As a working copy, part of the list above.
Field names – A = Sfp PPTase inh; B = Menin MLL FP FL; C = PINK1 modulator; D = gsp ag; E = D2 ag; F = ClpP mod; G = gsp antag
O=C(N/N=C/c1ccc(-c2cccc([N+](=O)[O-])c2)o1)c1ccc([N+](=O)[O-])cc1
  A = 2% | B = -0.6 | C = -1.2% | D = 6%[15.4 µM] | E = 2.7 | F = / | G = /
CCOc1ccc(N(CC(=O)NCCc2ccccc2)C(=O)CCC(=O)Nc2nccs2)cc1
  A = -9% | B = / | C = -1.1% | D = 18% | E = 0.3 | F = 1.3% | G = -16%
CCn1c(Nc2ccccc2Cl)nc2ccccc21
  A = 13% | B = 4.7 | C = -0.9% | D = 24%[15.4 µM] | E = -2.8 | F = / | G = -10%
C=C1CCN([C@@H](C)C(=O)NCCCCCC)S(=O)(=O)c2ccccc21
  A = 9% | B = 4.4 | C = -0.9% | D = -4% | E = 3.2 | F = -2.1% | G = 0%
Cc1ccc(NC(=O)Nc2c(C)n(C)n(-c3ccccc3)c2=O)cc1
  A = 2% | B = -3.9 | C = 0.6% | D = 4% | E = -2.3 | F = / | G = 8%
O=C(O)c1cc(-c2ccccc2Cl)n(-c2ccccc2)n1
  A = 16% | B = -1.3 | C = 7.1% | D = 1% | E = -5.3 | F = / | G = 0%
CCOC(=O)N1CCC2CC1c1cc(Cl)ccc12 (centres undefined)
  A = / | B = / | C = 3.8% | D = / | E = 0.6 | F = 1.9% | G = -2%
O=C(COC(=O)c1ccc(Br)o1)NCC1CCCO1 (centres undefined)
  A = 9% | B = 0.3 | C = -5.0%[38.3 µM] | D = 9% | E = -1.2 | F = 2.7% | G = 12%
O=C(c1ccc(Cl)cc1)C1CCN(C(=O)c2ccccc2)CC1
  A = -4% | B = 3.6 | C = 2.2% | D = -12% | E = -4.8 | F = 0.8% | G = 8%
COCCN1C(=O)N[C@@H](c2ccccc2)[C@@H](C(=O)OC)[C@H]1C
  A = -13% | B = -0.5[11.7 µM] | C = 0.4% | D = 5% | E = -1.7 | F = -1.6% | G = 8%

The results go on.
Field names – A = Sfp PPTase inh; B = Menin MLL FP FL; C = PINK1 modulator; D = gsp ag; E = D2 ag; F = ClpP mod; G = gsp antag
O=C(CSc1nc2[nH]ncc2c(=O)n1-c1ccccc1)c1ccc2c(c1)OCCO2
  A = -15% | B = -0.3 | C = 0.3% | D = 14% | E = -2.2 | F = -1.2% | G = 2%
CCCCN(C)C(=O)C1CCCN(S(=O)(=O)c2ccc3c(c2)CC(C)N3C(=O)C2CC2)C1 (centres undefined)
  A = 19% | B = 5.4 | C = 7.5% | D = 14% | E = 1.2 | F = 1.3% | G = -17%
Cc1cccc(OCc2nnc(SCC(=O)OC3CCCCC3)o2)c1
  A = 2% | B = -1.3 | C = 0.5% | D = -13% | E = -3.5 | F = 0.2% | G = ?
O=C(NC1CC1)c1ccc(S(=O)(=O)NC2CCCCCC2)cc1
  A = 16% | B = -2.2 | C = 4.3%[38.3 µM] | D = 16% | E = 1.4 | F = 0.4% | G = 7%
O=C(c1ccc2c(c1)OCO2)N1CCC(Cc2ccccc2)CC1
  A = -3% | B = 2.0 | C = -0.1% | D = 7%[15.4 µM] | E = -4.0 | F = -0.7% | G = 12%
CCOC(=O)c1c(NC(=O)c2ccc(S(=O)(=O)N(C)CC3CCCO3)cc2)sc2c1CCN(C)C2 (centres undefined)
  A = -1% | B = / | C = 14% | D = 31% | E = -4.3 | F = 0.2% | G = 21%
O=C(Cc1ccccc1[N+](=O)[O-])OCC(=O)c1ccccc1Br
  A = / | B = / | C = -1.0% | D = -26% | E = -2.5 | F = -1.4% | G = -9%
Cc1nc(N2CCC(C(N)=O)CC2)c2nnn(Cc3ccccc3)c2n1
  A = -5% | B = 3.1 | C = 6.4%[38.3 µM] | D = -4% | E = -1.9 | F = 0.1% | G = 2%
O=C(NC(Cc1ccccc1)C(=O)O)c1ccc(S(=O)(=O)N2CCCCC2)cc1 (centres undefined)
  A = 5% | B = 1.7 | C = -0.3%[38.3 µM] | D = -7% | E = -2.7 | F = -0.2% | G = -2%
Cc1onc(-c2c(Cl)cccc2Cl)c1C(=O)N1C=CC(C(F)(F)F)=NCC1
  A = 12% | B = -0.7 | C = -0.1%[38.3 µM] | D = ? | E = -0.6 | F = 0.8% | G = 3%
O=C(Nc1ccc(Oc2ccc(NC(=O)C3CCCO3)cc2)cc1)C1CCCO1 (centres undefined)
  A = 7% | B = -0.7 | C = 1.2% | D = -10% | E = -3.0 | F = -1.5% | G = -9%
O=C(O)CCNS(=O)(=O)c1ccccc1C(F)(F)F
  A = 13% | B = 0.8 | C = 1.4% | D = -1%[15.4 µM] | E = -3.4 | F = -0.2% | G = 14%
CCCOC(=O)c1ccc(Oc2c(-c3ccc(O)cc3O)n[nH]c2C)cc1
  A = 22% | B = 1.3 | C = 1.0% | D = 27% | E = -1.8 | F = 1.6% | G = 15%
C[C@@H]1CN([C@H](C)CO)C(=O)c2cccc(NC(=O)Nc3ccc(F)cc3)c2O[C@H]1CN(C)C(=O)Nc1ccc(C(F)(F)F)cc1
  A = / | B = / | C = ? | D = / | E = 1.5 | F = 0.1% | G = ?
O=C1NN(c2ccccc2)C(=O)/C1=C\c1ccccc1OCC(=O)N1CCOCC1
  A = ? | B = 0.6 | C = -0.4%[38.3 µM] | D = 0% | E = -1.0 | F = 3.8% | G = -16%
Oc1ccc(N2CCN(C(c3ccccn3)c3nnnn3C3CCCC3)CC2)cc1 (centres undefined)
  A = 18µM* | B = 4.0 | C = -3.0%[38.3 µM] | D = -22% | E = 1.4 | F = -0.6% | G = -9%
O=C(NC1CCCCC1)NC1(C(=O)N2CCN3CCCC3C2)CCCCC1 (centres undefined)
  A = 13% | B = 0.7 | C = -0.7% | D = 0% | E = -2.4 | F = 0.2% | G = 10%
